HCMV NEC inh: disrupts HCMV UL50-UL53 complex binding; HTRF UL50-UL53 interaction, normalized percent inhibition; inhibition, % (no concentration beside the values); 190,000 tested, 0.15% active; AID 1918969;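 active = both replicates at 50% or more, plus weaker picks with an unusually low signal ratio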;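 note: stock transfer was 100 nL into about 20 µL; 0% = negative control wells and 100% = wells with untagged competitor protein; inactives centre near -12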
Sa growth 42C: inhibitors of Staphylococcus aureus growth at 42 °C. AID 720641. 170,000 tested, 0.53% active. relative growth, % (test concentration not listed). S. aureus RN4220 growth, OD600, 20 h; active compounds read low;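 active = growth at 42 °C up to 50% and 20 or more points under that at 30 °C, or under 10% at both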;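 note: 300 nL library stock went into each well; scaled to the means of positive and negative controls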
GIV Gai3 FP: GIV-Galpha-i interaction inhibition | P08753 | percent of control (FP), % (concentration not given with the values) | Galpha-i3/FITC-GIV peptide fluorescence polarization, 90 min; active compounds read low; scaled: aluminum fluoride 0%, vehicle 100% | 210,000 tested, 0.42% active;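 active = replicate mean at 85% of control or lower, very high polarization wells dropped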;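 note: wells of about 15 µL received 100 nL stock; the first replicate is given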
Target sequence (P08753 whole entry, looked up): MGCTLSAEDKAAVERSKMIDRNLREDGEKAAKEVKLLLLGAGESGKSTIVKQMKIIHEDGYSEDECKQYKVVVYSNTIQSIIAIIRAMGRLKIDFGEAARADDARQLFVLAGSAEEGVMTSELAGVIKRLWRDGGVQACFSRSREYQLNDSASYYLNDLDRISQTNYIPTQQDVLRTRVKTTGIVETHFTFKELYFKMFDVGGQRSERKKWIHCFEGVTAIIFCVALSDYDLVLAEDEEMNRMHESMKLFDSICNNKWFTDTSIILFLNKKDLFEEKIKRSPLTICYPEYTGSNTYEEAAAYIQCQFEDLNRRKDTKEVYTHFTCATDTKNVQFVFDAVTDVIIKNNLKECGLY
Sa growth 42C second temp: recorded beside Sa growth 42C, whose call it bears; relative growth, %; measured here: growth at 30 °C;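 optical density after 20 h as mean of two plates; 100% = untreated growth and lower means inhibition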
* hit, by the source's call; x = not tested or not shown; & = joins results of further samples.

SMILES	HCMV NEC inh	Sa growth 42C	Sa growth 42C second temp	GIV Gai3 FP
O=C(NCC1CCN(S(=O)(=O)c2ccc(Cl)cc2)CC1)C1CCCO1 (configuration not stated)	-5	104	90	99
COc1ccc(CN(Cc2ccco2)C(=O)c2ccccc2F)cc1	-9	108	85	103
Cc1nn2c(=O)cc(COC(=O)c3cccs3)nc2s1	x	87	90	105
CN(CCC#N)C(=O)c1ccc2c(c1)N(Cc1ccc(F)cc1)C(=O)c1ccccc1S2=O (configuration not stated)	-4	110	92	99
Cc1nc2c3c(C)c(C)n(C)c3ncn2n1	0	x	x	103
CC(=O)N1CCc2cc(Br)cc(S(=O)(=O)CCC(=O)N3CCN(c4ccc(F)cc4)CC3)c21	1	88	97	108
COCCn1cc(C(=O)N2CCN(c3ccccc3F)CC2)c2c3ccccc3n(C)c2c1=O	-35	x	x	104
COc1cccc(NC(=O)CN(c2cccc(OC)c2)S(C)(=O)=O)c1	-10	98	79	111
CCSc1nc2ccc(NC(=O)c3ccccc3C(=O)N3CCCCC3)cc2s1	-20	x	x	106
O=C(c1cc(-c2cccnc2)on1)N1CCN(C(c2ccccc2)c2ccccc2)CC1	-2	x	x	102
O=C(CC(NCCc1ccccc1)C(=O)O)Nc1ccc(O)cc1 (configuration not stated)	0	94	98	102
COc1ccc(C2CC(=O)c3cnc(NCCCOC(C)C)nc3C2)cc1 (configuration not stated)	-14	x	x	99
O=C(NCCc1ccccc1)c1nc2ncccn2n1	-9	130	100	96
COc1cc(C=Nc2ccc3c(c2)OCO3)ccc1OC(=O)c1ccco1	-26	88	78	x
CCCC(=O)Nc1c2c(nc3ccccc13)N(Cc1ccccc1)CC2	12	97	94	97
C1=C(c2ccc3c(c2)c2c4n3CCNC4CCC2)CCC1 (configuration not stated)	-15	110	77	101
CC(C)NC(=O)CC(=O)Nc1ccc2nc3n(c(=O)c2c1)CCCCC3	-11	104	90	109
CCOC(=O)Nc1ccc2c(c1)ncn2C1CCCCC1	-3	99	85	103
C(=N\c1nc2ccccc2s1)/c1cccnc1	-6	107	100	91
CCn1c2ccccc2c2cc(NC(=O)c3ccc(OC)c(OC)c3)ccc21	4	104	102	x
Cc1nc(NC2CC2)c2c3c(sc2n1)CCC3	22	87	93	x
COc1cccc(-n2c(CC(=O)NN)csc2=NCc2ccco2)c1	-18	105	108	x
O=C(Cn1c(=O)n(-c2ccc(F)cc2)c(=O)c2sccc21)Nc1cccc(C(F)(F)F)c1	-11	99	94	106
Cc1ccc(C)c(N2CCN(CCCNC(=O)Cn3c(-c4cccs4)cc4ccccc43)CC2)c1	x	132	83	104
CC(=O)N1CCc2c(sc3nc(SCc4ccc(C)cc4)n(Cc4ccco4)c(=O)c23)C1	-24	69	40	106
COc1ccc(/C=C2/C(=O)NC(=O)N(c3ccc(Br)cc3)C2=O)c(OC)c1	-3	x	x	107
CC(Oc1ccccc1)C(=O)N(CC#N)CC#N (configuration not stated)	-4	91	98	x
O=C1Nc2ccccc2N(O)N1c1nccs1	x	97	83	109
COC(=O)/C(C#N)=C1/C=Cc2ccccc2N1	-53	88	95	x
Fc1ccc(N(Cc2nc3ccccc3[nH]2)Cc2nc3ccccc3[nH]2)cc1	5	87	111	108
Cc1ccc(-c2cc3c(=O)[nH]nc(SCc4cc(=O)n5ccccc5n4)n3n2)cc1	-6	x	x	103
O=C(CSc1nnc(-c2ccccc2)o1)c1cccc(C(F)(F)F)c1	-12	89	85	x
COc1ccccc1NC(=O)NC(CC(=O)O)c1ccc(C)cc1 (configuration not stated)	0	104	97	x
CC1CCc2c(sc3ncnc(NS(=O)(=O)c4cccs4)c23)C1 (configuration not stated)	-4	86	92	x
O=C(Nc1nc2ccccc2n1CCN1CCCCC1)c1ccccc1	1	82	58	104
Cc1cccc(OCc2nnc(SCc3nc4ccccc4c(=O)n3CC#N)o2)c1	-25	83	84	x
COc1ccc(-c2nc(CNC(=O)Nc3ccccc3)c(C)o2)c(OC)c1	x	104	93	102
O=C(Nc1ccc(Cl)cc1)c1cccnc1C(=O)O	x	93	84	99
Cc1cccc(OCC(=O)N(Cc2cccs2)c2ccc(Cl)cc2)c1C	-26	101	85	102
CCOC(=O)c1c(NC(=O)c2cccc(Cl)c2)sc(C(=O)Nc2cccc(C(F)(F)F)c2)c1C	-6	x	x	103
CC1(C)OC(C)(C)/C(=C/c2c(Cl)cccc2Cl)C1=O	-11	91	87	x
O=C(NCc1cccnc1)C1CCCN(S(=O)(=O)c2cccc3nsnc23)C1 (configuration not stated)	-77	113	102	97
CN(Cc1cccc(F)c1)C(=O)COC(=O)c1ccc2c(c1)NC(=O)CS2	-33	79	100	x
Cc1nn(C)c2ncc(C(N)=O)c(Oc3ccc(Cl)cc3)c12	-9	106	79	99
CCc1ccc(NC(=O)N2CCN(Cc3nc(-c4ccccc4)oc3C)CC2)cc1	14	x	x	104
O=C(C1CC1)N1CCN(c2ccc(F)cc2)CC1	-12	107	113	102
O=C(O)c1ccc(Nc2nc3ccccc3nc2NS(=O)(=O)c2cccs2)cc1	-23	89	76	102
O=C1/C(=C\c2c[nH]c3ccccc23)C(c2ccccc2)Oc2ccccc21 (configuration not stated)	-28	87	84	179
CCOC(=O)Cn1c2c(sc1=O)C1c3ccccc3OCC1CS2 (configuration not stated)	-35	76	74	110
Cc1ccc(CNC(=O)c2cc(S(=O)(=O)N3CCCC(C)C3)cn2C)cc1 (configuration not stated)	x	104	103	102

Given with bars between the fields: entries from further up
molecule | HCMV NEC inh | Sa growth 42C | Sa growth 42C second temp | GIV Gai3 FP
Cc1nn(C)c2ncc(C(N)=O)c(Oc3ccc(Cl)cc3)c12 | -9 | 106 | 79 | 99
CCOC(=O)Cn1c2c(sc1=O)C1c3ccccc3OCC1CS2 (configuration not stated) | -35 | 76 | 74 | 110

Remaining list, next part:
SMILES	HCMV NEC inh	Sa growth 42C	Sa growth 42C second temp	GIV Gai3 FP
CCc1ccc(C2N3CC4(C)CN2CC(c2ccccc2)(C3)C4=O)cc1 (configuration not stated)	4	99	89	102
Cc1cccc(N(Cc2nc3nc(C)cc(=O)n3[nH]2)S(C)(=O)=O)c1	3	x	x	105
CCNC(=O)CCn1cnc2c(c(C)c(C)n2-c2ccccc2)c1=O	-11	x	x	106
O=C1Nc2ccc(Br)cc2/C1=C/C(=O)c1ccc2c(c1)OCO2	-3	81	91	98
Cc1cc2oc(C(=O)NCCc3ccc(S(N)(=O)=O)cc3)cc(=O)c2cc1C	1	97	89	103
Cc1[nH]c(-c2ccc(F)cc2)cc1C(=O)NCCc1ccc(S(N)(=O)=O)cc1	x	93	78	105
Cc1csc2c(NCCCN3CCOCC3)ncnc12	0	104	90	108
COc1ccc(S(=O)(=O)N(CC(=O)N2CCN(c3ccccc3)CC2)c2ccc(C)cc2)cc1OC	-6	x	x	104
O=c1c(Cc2ccccc2)c(O)c2ccccc2n1-c1ccccc1	-11	107	91	103
COc1ccc(C2NC(c3ccc(OC)cc3)C(C)C(O)(Cc3ccccc3)C2C)cc1 (configuration not stated)	x	84	89	112
CC1(C(=O)NC2CCCC2)CSc2c([nH]c3ccccc23)C(=O)N1Cc1ccc(Cl)cc1 (configuration not stated)	-20	x	x	106
CN(C)S(=O)(=O)c1ccc(C(=O)NCCN=C2NS(=O)(=O)c3ccccc32)cc1	-15	x	x	93
COc1cc(/C=C/C(=O)O)cc(Br)c1O	-12	86	98	x
O=C(c1ccc2c(c1)N(Cc1cccc(F)c1)C(=O)c1ccccc1S2)N1CCCCC1	x	68	64	100
N#CC1(NC(=O)COC(=O)C2CC3CCCC(C2)C3=O)CCCC1 (configuration not stated)	-16	86	96	x
COCCOC(=O)C1=C(C)NC2=C(C(=O)CC(c3ccc(Cl)cc3)C2)C1c1ccccc1Br (configuration not stated)	-8	x	x	102
CCOc1ccc(CNC(=O)c2ccc3c(c2)c(C)c(C)n3C)cc1	x	97	99	107
Clc1nc(-c2cccs2)nc2ccccc12	-8	110	96	x
c1ccc(CSc2nnc(-c3ccco3)c(-c3ccco3)n2)cc1	-46	66	45	94
Cc1ccc(NC(=O)N(CCc2ccncc2)C(C)C)cc1C	12	106	107	110
COc1cccc(CNC(=O)C(=O)NCC(c2cccs2)S(=O)(=O)c2ccccc2)c1 (configuration not stated)	x	109	105	99
COc1ccc(NC(=O)n2ncc3cc(Cl)ccc32)c(OC)c1	4	x	x	114
O=C(Nc1ccc(Oc2ccccc2)cc1)C1CCN(S(=O)(=O)c2ccccc2)CC1	-12	99	88	105
Cc1ccc(N2NC(=O)C(C)(C)C2=O)cc1	-71	x	x	97
Cc1ccc2nc(N3CCOCC3)c(/C=C3\SC(=S)NC3=O)c(=O)n2c1	-21	83	70	134
COc1ccc(-c2noc(CNS(=O)(=O)c3ccc(Br)cc3)n2)cc1OC	-8	110	89	105
O=C(O)CCN1c2cccc3cccc(c23)S1(=O)=O	-46	91	87	x
CCCN(CCC)C(=O)Cn1cnc2onc(-c3ccc(Cl)cc3)c2c1=O	-5	x	x	106
CCn1c(C(=O)N2CCC(C(=O)NCCc3ccccc3)CC2)cc2sccc21	1	106	82	103
CCOc1ccc(NC(=O)CNc2ccc(S(=O)(=O)N(C)C)cc2)cc1OCC	-13	94	92	x
CCOC(=O)N1CCN(C(=O)CNC2CCCC(C)C2C)CC1 (configuration not stated)	-5	100	96	x
COC(=O)c1c(C)sc(-c2c(-c3ccc(OC)c(F)c3)[nH]c3c2c(=O)n(C)c(=O)n3C)c1O	9	96	91	175
COC(=O)c1ccccc1NC(=O)c1ccc(-n2nc(OCc3ccc(Cl)cc3)ccc2=O)cc1	-13	x	x	109
Cn1c2ccccc2c2cnn(CC(=O)N3CCc4ccccc43)c(=O)c21	2	100	92	101
Cc1nc(N2CCc3ccccc32)c2onc(-c3ccccc3)c2n1	-18	x	x	104
Clc1ccc2oc(-c3ccccc3)cc(=NCc3cccnc3)c2c1	x	60	41	98
CS(=O)(=O)c1cccs1	-10	103	82	104
COc1ccc(C2=NN(C(=O)CCCC(=O)O)C(c3cc4ccc(C)cc4nc3Cl)C2)cc1 (configuration not stated)	-9	x	x	101
CC1CC(=O)N(C(C)c2ccccc2)c2ccccc2N1 (configuration not stated)	-24	x	x	102
O=C(Nc1cccc(Cl)c1)Nc1ccc(CSc2ccc(Cl)cc2)o1	-25	40	34	105

Overlap with the part before: 7 entries, followed by the next part.
SMILES	HCMV NEC inh	Sa growth 42C	Sa growth 42C second temp	GIV Gai3 FP
Cn1c2ccccc2c2cnn(CC(=O)N3CCc4ccccc43)c(=O)c21	2	100	92	101
Cc1nc(N2CCc3ccccc32)c2onc(-c3ccccc3)c2n1	-18	x	x	104
Clc1ccc2oc(-c3ccccc3)cc(=NCc3cccnc3)c2c1	x	60	41	98
CS(=O)(=O)c1cccs1	-10	103	82	104
COc1ccc(C2=NN(C(=O)CCCC(=O)O)C(c3cc4ccc(C)cc4nc3Cl)C2)cc1 (configuration not stated)	-9	x	x	101
CC1CC(=O)N(C(C)c2ccccc2)c2ccccc2N1 (configuration not stated)	-24	x	x	102
O=C(Nc1cccc(Cl)c1)Nc1ccc(CSc2ccc(Cl)cc2)o1	-25	40	34	105
CC(C)(C)C(=O)Nc1ccc(C(C)(C)C)cc1	-44	81	90	103
Cc1ccc(-c2nn3c(=O)cc(CN4CCN(C(=O)c5ccc(C(C)(C)C)cc5)CC4)nc3s2)cc1	x	87	85	98&105
Cc1ccc(NC(=O)N2CCC(CN3CCC(C)CC3)CC2)cc1F	x	119	91	105
CNC(=O)Nc1ccccc1NC(=O)NC	-1	103	117	101
Clc1ccccc1Cc1cn2cc(-c3ccccc3)nc2s1	-34	79	90	99
CCN1CCN(c2cc(C)c3cc(NC(=O)CCC(=O)Nc4ccc5c(c4)OCCO5)ccc3n2)CC1	-9	98	77	106
CCCCNC(=O)/C=C1\Sc2ccccc2NC1=O	-15	109	115	111
Cc1cc(C)c2c(NC(=O)c3ccccc3)c(C(=O)Nc3ccc(F)cc3)sc2n1	x	101	88	99
Cc1oc(-c2ccc(C(=O)NCc3ccc(Cl)cc3)cc2)nc1CS(=O)(=O)c1ccccc1	x	112	83	110
COC(=O)c1sc(C(F)(F)F)c(-c2ccccc2)c1S(=O)(=O)NC(C)(C)C	-4	103	100	109
CN(C1CCCCC1)S(=O)(=O)c1ccc2ccccc2c1	-5	87	78	102
CC1C/C(=N/N=C2/NC(=O)CS2)CC(C)(C)C1 (configuration not stated)	-10	145	89	98
CC1CCc2c(sc(NC(=O)c3ccc(Cl)s3)c2C#N)C1 (configuration not stated)	-1	96	85	x
COc1ccc(Br)c(C(=O)Nn2c(-c3ccc(OC)c(OC)c3)nc3ccccc3c2=O)c1	-14	x	x	100
O=C1OCC2=C1C(c1ccc3c(c1)OCO3)c1c(ccc3ccccc13)N2 (configuration not stated)	x	116	77	99
Clc1cccc(Nc2nnc(Cc3cccnc3)c3ccccc23)c1	x	104	72	98
CC1=C(c2ccc(C)c(C)c2)S(=O)(=O)N(Cc2ccc(C(=O)NCCC3=CCCCC3)cc2)C1=O	8	x	x	102
CCc1nc2ccccc2n1C(=O)c1cc2c(C)nn(-c3ccc(Cl)cc3)c2s1	16	88	97	x
CC(c1ccccc1)n1c(SCCS(=O)(=O)c2ccc(F)cc2)n[nH]c1=O (configuration not stated)	-9	105	83	105
